Screens: PubChem, University of Pittsburgh Molecular Library Screening Center
WNV NS2B-NS3 inh – inhibitors of West Nile virus NS2B-NS3 protease; z-score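 (tested at a level between 10 and 100 µM)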; actives 0.18% (n = 65,000); WNV NS2B-NS3 protease, fluorogenic substrate Ex360/Em465; stronger effect = lower value; P06935; AID 577;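 active means z-score at -3 or under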;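 further: score is relative to mean and spread of the compound wells of a plate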
Target sequence (P06935 1371-1501 limits assumed): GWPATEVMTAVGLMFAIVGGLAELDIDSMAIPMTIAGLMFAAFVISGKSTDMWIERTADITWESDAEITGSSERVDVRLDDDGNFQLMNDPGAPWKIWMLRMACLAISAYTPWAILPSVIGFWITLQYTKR
Target sequence (P06935 1502-1679 limits assumed): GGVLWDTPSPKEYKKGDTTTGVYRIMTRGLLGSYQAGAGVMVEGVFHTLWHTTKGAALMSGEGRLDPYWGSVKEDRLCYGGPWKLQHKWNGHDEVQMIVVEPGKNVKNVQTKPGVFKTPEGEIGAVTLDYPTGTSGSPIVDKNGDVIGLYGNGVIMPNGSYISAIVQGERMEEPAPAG
* marks the source's active call; other numbers are inactive results. The list is partial, so the mix of outcomes need not match the whole.

SMILES	WNV NS2B-NS3 inh
Cc1cccc(N(CC(=O)Nc2c(C)n(C)n(-c3ccccc3)c2=O)S(C)(=O)=O)c1C	-0.97
O=C(Nc1ccc2c(c1)OCO2)C1CCN(S(=O)(=O)c2cccs2)CC1	-0.7
O=C(NCc1cccnc1)C1CCN(S(=O)(=O)c2cccnc2)CC1	-0.42
CCOC(=O)c1[nH]c2c(c1C)C(=O)CC(c1ccc(OC)c(OC)c1)C2 (stereo unspecified)	1.9
Cc1cc(COc2ccccc2OCCN2CCN(C)CC2)no1	-0.76
Cc1cccc(-n2ccnc2SCC(=O)Nc2ccc3c(c2)OCCO3)c1	-0.87
CCC(=O)N1CCc2cc(S(=O)(=O)NCCN3CCCCC3CC)ccc21 (stereo unspecified)	-0.59
COc1ccc(C(=O)Nc2cc(OC)cc(OC)c2)cc1	0.38
CS(=O)(=O)N1CCCC(C(=O)NCc2ccc(F)cc2Cl)C1 (stereo unspecified)	-1.3
COc1ccc(-n2c(Cc3cccn3C)nnc2SCC(=O)Nc2ccc(Cl)cc2)cc1	-1.7
CN1C(=O)c2ccccc2C(C(=O)NCCCN2CCCC2)C1c1c[nH]c2ccccc12 (stereo unspecified)	-0.98
Cc1cc(C(=O)NCCC2=CCCCC2)c(C)o1	0.31
Cc1ccc(S(=O)(=O)N2CCCC2C(=O)NCc2ccco2)cc1 (stereo unspecified)	1.4
O=C(CCNS(=O)(=O)c1cccc2nonc12)N1CCN(c2cccc(Cl)c2)CC1	0.71
N#CC1=C(N)Oc2n[nH]c(-c3ccc(F)cc3)c2C1c1cccc(OC(=O)N2CCOCC2)c1 (stereo unspecified)	0.74
O=C(CSc1nnc2sc3ccccc3n12)NCc1ccco1	-0.34
O=C1C(C=NCCN2CCOCC2)=C(O)c2ccccc21	-0.51
NC(=O)c1ccccc1N=Cc1ccccn1	2.1
Cc1nnc(Sc2nc3c(c(=O)[nH]c(=O)n3C)n2CCCc2ccccc2)s1	-0.71
CCOc1ccccc1C1CC(=O)Nc2cc(OC)c(OC)c(OC)c21 (stereo unspecified)	1.6
COc1ccccc1Oc1cc(C#N)c(C#N)cc1-n1nnc2ccccc21	1.2
O=C(COc1ccccc1)N1CCc2ccccc2C1	0.29
O=C(CSc1nnc(CNC(=O)c2c(F)cccc2Cl)o1)NCc1ccc2c(c1)OCO2	0.32
CCOC(=O)CC(=O)CSc1nnc2c(n1)[nH]c1ccccc12	0.52
COc1cc(Cl)c(S(=O)(=O)N2CCN(Cc3ccc4c(c3)OCO4)CC2)cc1Cl	0.99

Reprinted at random: five records from the list
SMILES	WNV NS2B-NS3 inh
Cc1cccc(-n2ccnc2SCC(=O)Nc2ccc3c(c2)OCCO3)c1	-0.87
Cc1cc(COc2ccccc2OCCN2CCN(C)CC2)no1	-0.76
Cc1cc(C(=O)NCCC2=CCCCC2)c(C)o1	0.31
O=C(NCc1cccnc1)C1CCN(S(=O)(=O)c2cccnc2)CC1	-0.42
COc1ccc(-n2c(Cc3cccn3C)nnc2SCC(=O)Nc2ccc(Cl)cc2)cc1	-1.7

Other entries:
SMILES	WNV NS2B-NS3 inh
O=C(NCc1nnc(SCC(=O)N2CCN(c3ccccc3)CC2)o1)c1ccco1	-0.87
COc1cc(OC)cc(C(=O)NCc2nc(-c3ccccc3)no2)c1	0.57
CCOC(=O)Cc1csc(NC(=O)C2CCCCC2C(=O)O)n1 (stereo unspecified)	0.54
CCC(=O)N1CCc2cc(S(=O)(=O)NCCCOC)ccc21	-0.54
COC(=O)c1ccc(C)c(NS(=O)(=O)c2ccc(OC)cc2)c1	0.66
COC(=O)c1[nH]c2ccc(C)cc2c1NC(=O)CN1CCCCC1C (stereo unspecified)	0.73
COc1ccccc1CNC(=O)c1cnc2ccccn2c1=O	0.25
Oc1c(I)cc(I)c2cccnc12	0.21
CC1CC(C)CN(CCCn2c(=S)[nH]c3ccccc3c2=O)C1 (stereo unspecified)	-0.42
CC1CCc2c(sc3ncnc(N4CCOCC4)c23)C1 (stereo unspecified)	-0.28
CC(=O)COC(=O)c1cccc(N2C(=O)C3C4C=CC(C4)C3C2=O)c1 (stereo unspecified)	0.1
COc1ccc(NC(=O)c2cnc3ccccn3c2=O)cc1OC	-0.82
Cc1csc(NC(=O)CSc2nnc(-c3ccncc3)o2)n1	-0.39
Cc1csc(SCC(=O)Nc2ccccn2)n1	0.87
COc1ccc(N(CC(=O)Nc2ccc3c(c2)OCCO3)S(=O)(=O)c2cccnc2)cc1	-0.39
COc1ccc(S(=O)(=O)N2CCC(C(=O)Nc3c(F)cccc3F)CC2)cc1	1
C=CCC1(O)C(=O)N2C(=C1C(=O)N1CCOCC1)c1ccccc1CC2(C)C (stereo unspecified)	-0.46
CCSc1nnc(Cc2cc(=O)[nH]c(=O)[nH]2)n1-c1ccc(F)cc1	-0.13
O=C(CN1CCOCC1)NC1C2CC3CC(C2)CC1C3 (stereo unspecified)	1
CN1CC2(Cc3c1ccc1ccccc31)C(=O)OC(C)(C)OC2=O	-0.37
O=C(C1CCCN(S(=O)(=O)c2cccc3nonc23)C1)N1CCC(Cc2ccccc2)CC1 (stereo unspecified)	1.1
O=C(CCCn1c(=O)c2sccc2n(Cc2cc(=O)n3ccccc3n2)c1=O)NCc1ccco1	-0.0012
CCCCCC#CCC#CCC#CCC#CCCCC(=O)O	-0.23
CCc1c(C#N)c(SCc2c(C)noc2C)nc2c1C(=O)CC(C)(C)C2	2.3
CCOC(=O)c1ccccc1NC(=O)Cn1cnc2c(cnn2-c2ccc(F)cc2)c1=O	-0.72
SMILES	WNV NS2B-NS3 inh
CCOc1ccc(CCNC(=O)CN2CCN(Cc3ccc(F)cc3)C2=O)cc1OCC	-0.2
CCOC(=O)N1CCC(N2C(=O)c3ccc(C(=O)Nc4ccc(F)cc4F)cc3C2=O)CC1	0.54
CCOc1cccc2cc(C(=O)Nc3nccs3)c(=O)oc12	-0.85
CCc1ccccc1NS(=O)(=O)c1cc(C)ccc1OC	-0.14
CSc1ccc(CN2CCC(O)CC2)cc1	-0.53
COc1ccc(OC)c(C2C(C(=O)Nc3ccc(F)cc3)=C(C)Nc3nc(CCCO)nn32)c1 (stereo unspecified)	-0.37
CCCCOc1ccc(C(O)(CCC)CCN2CCOCC2)cc1 (stereo unspecified)	-0.45
Cc1cccc2cc(CN(Cc3ccc4c(c3)OCO4)Cc3nnnn3C3CCCC3)c(=O)[nH]c12	-0.27
COc1cccc(NC(=O)Cc2cn(C)c3ccccc23)c1	-0.31
COc1cc(OC)c(C2C(C(=O)N3CCOCC3)=C(C)NC3=C2C(=O)CC(C)(C)C3)cc1OC (stereo unspecified)	0.45
CC(=O)NCC(=O)N(Cc1ccco1)C1(C(=O)NC2CCCCC2)CCCCC1	0.03
Cc1noc(C)c1S(=O)(=O)N1CCC(C(=O)N2CCN(c3ccc(Cl)cc3)CC2)CC1	0.91
Cc1cc(C)nc(SCCc2ccncc2)n1	0.41
COc1ccc(C(=O)c2no[n+]([O-])c2C(=O)c2ccc(OC)cc2)cc1	-0.0036
COc1ccccc1N1CCN(CCNC(=O)Nc2cccc(C)c2C)CC1	-0.14
O=C1CN(C(=O)CN2CCOCC2)C(c2ccccc2)c2cc(Br)ccc2N1 (stereo unspecified)	0.24
COc1ccc(-c2cc(C(F)(F)F)n3nc(C(=O)N4CCCCC4)cc3n2)cc1	1.9
Cc1ccc(N2C(=O)c3ccc(C(=O)N4CCN(c5ccccc5F)CC4)cc3C2=O)cc1	0.21
O=C(CN1C(=O)c2ccccc2S1(=O)=O)NCc1cccnc1	-0.19
CCOC(=O)c1cc2c(=O)n3ccccc3nc2n(CC2CCCO2)c1=NC(C)=O (stereo unspecified)	2
CCCC(=O)C1=C(O)C(C(=O)OC)C(C)(C)CC1=Nc1ccccc1 (stereo unspecified)	-0.51
CCOc1ccccc1N1CCN(CC(O)COc2ccc3c(C)cc(=O)oc3c2)CC1 (stereo unspecified)	-0.21
COc1cc(OC)c(OC)cc1CNC1CCCCCC1	-0.01
COc1ccc(NC(=O)CCN2C(=O)C3CC=C(Cl)CC3C2=O)cc1 (stereo unspecified)	-0.17
Cc1cccc(N2CCN(C(=O)COc3cc(=O)n(C)c4ccccc34)CC2C)c1 (stereo unspecified)	-1.1
SMILES	WNV NS2B-NS3 inh
COc1ccccc1CNS(=O)(=O)c1cc(C)ccc1OC	1.8
O=C(NCc1cccs1)C1CCC(CNS(=O)(=O)c2ccc(Br)s2)CC1 (stereo unspecified)	2.2
CCOC(=O)c1c(C)nc(-c2ccccc2)nc1N	-1.1
O=C(CCCOc1ccccc1)N1CCCc2ccccc21	0.4
O=C(CSc1nnc(-c2ccccc2)n1-c1ccccc1)NCc1ccco1	0.19
COc1ccc(-c2cc3nc(C)c(CCC(=O)N4CCCCC4)c(C)n3n2)c(OC)c1	-1.7
CCn1c(=NC(=O)CSC(C)=O)sc2cc(F)ccc21	-0.38
CCOc1ccccc1NC(=O)CSc1nnc(Cc2cccn2C)n1-c1ccc(F)cc1	-0.8
CCOC(=O)NC(Nc1sc2c(c1C(N)=O)CCCC2)(C(=O)OCC)C(F)(F)F (stereo unspecified)	0.32
O=C(NCC(c1cccnc1)N1CCN(c2ccccc2F)CC1)OCc1ccccc1 (stereo unspecified)	0.36
Nc1cc(Cl)ccc1Oc1ccccc1	0.04
Cc1scc(C(=O)Nc2ccon2)c1-c1ccccc1	0.49
CCN(CCCNC(=O)C1CCN(S(=O)(=O)c2c(C)[nH]c(=O)[nH]c2=O)CC1)c1cccc(C)c1	-0.17
O=C(C1CCN(S(=O)(=O)c2cccs2)CC1)N1CCCCCC1	-1.1
Cn1c(=O)cc(OCC(=O)NC2CCCCC2)c2ccccc21	-0.4
CCN(CCNC(=O)c1cccc(N2CCCC2=O)c1)c1ccccc1	1
CCCc1nc2sc3c(c2c(=O)n1N)CCC3	-0.76
O=C(/C=N/O)NCCCN1CCCCCC1	-0.38
O=C(O)CCC(=O)CCC(=O)c1ccc(Cl)cc1	1.2
O=C(NC1(C(F)(F)F)NC(=O)N(Cc2cccnc2)C1=O)c1ccncc1 (stereo unspecified)	-0.05
COc1ccc(-c2cc(C(=O)NC(C)C)no2)cc1	-1
Cc1c(N=Cc2ccc(Cl)o2)c(=O)n(-c2ccccc2)n1C	0.87
COc1ccc(NC(=O)C2C3C=CC4(CN(Cc5cccnc5)C(=O)C24)O3)c(OC)c1 (stereo unspecified)	1.4
O=S(=O)(c1ccc(Br)c2nsnc12)N1CCOCC1	-1.4
COc1ccc(OC)c(NC(=O)c2cnc3n(c2=O)CCS3)c1	-0.93

Overlap with the part before: 2 compounds, followed by the next part.
SMILES	WNV NS2B-NS3 inh
O=S(=O)(c1ccc(Br)c2nsnc12)N1CCOCC1	-1.4
COc1ccc(OC)c(NC(=O)c2cnc3n(c2=O)CCS3)c1	-0.93
COc1ccc(OC)c(NC(=O)CSc2nnc(CNC(=O)c3ccco3)o2)c1	0.15
Cc1ccc(C2C3=C(CC(C)(C)CC3=O)Nc3[nH]c(=S)[nH]c(=O)c32)cc1 (stereo unspecified)	-0.55
CN(CC(=O)NCc1ccc2c(c1)OCO2)S(=O)(=O)c1ccc(Br)s1	-1.3
CCOC(=O)c1[nH]c(COC(=O)c2ccccc2NC(=O)c2ccco2)c(C(=O)OCC)c1C	-0.44
Cc1c(NC(=O)Oc2ccccc2)sc(=S)n1C	-0.43
COc1ccc(C)cc1NS(=O)(=O)c1cn(C)c(=O)n(C)c1=O	-0.28
CC1=C(C(=O)NCc2ccccc2)C(c2ccccc2OCC(N)=O)NC(=O)N1 (stereo unspecified)	-0.96
Oc1ccc(-c2nc3ncccn3c2Nc2ccc3c(c2)OCCO3)cc1	-0.06
COc1ccc(C2CC(C(F)(F)F)n3ncc(C(=O)Nc4cccc(O)c4)c3N2)cc1OC (stereo unspecified)	0.26
COc1cc(C(=O)NCc2cn3cccc(C)c3n2)cc(OC)c1OC	1.2
CCOC(=O)c1[nH]c(=O)[nH]c1CSCCO	-0.84
CCOC(=O)c1[nH]nc(-c2c(O)cc(C)cc2O)c1-c1csc(C)n1	-0.73
O=C(Nn1cnnc1)c1cc2c(s1)CCCCC2	-1.9
CC(=O)C1=C(C)Nc2ncnn2C1c1ccccc1OCc1ccccc1 (stereo unspecified)	-0.26
Cc1ccc2[nH]c(=O)c(CN(CCN3CCOCC3)C(=O)Nc3ccccc3F)cc2c1	0.44
CCn1ccc(C(=O)Nc2ccc(S(=O)(=O)Nc3ccccc3OC)cc2)n1	-0.68
O=C(Nc1ccc(F)cc1)C1CCC(N2C(=O)c3ccccc3C2=O)CC1 (stereo unspecified)	-0.66
CCCCc1ccc(Nc2ncnc3nc[nH]c23)cc1	2.9
CS(=O)(=O)Nc1ccc(C(=O)N2CCCCC2)cc1	-0.37
Cc1csc(NC(=O)C(NS(=O)(=O)c2ccc(Br)s2)c2ccccc2)n1 (stereo unspecified)	1.3
Cc1c(C(=O)N2CCN(c3ncccn3)CC2)sc2nc3n(c(=O)c12)CCCC3	-0.61
COc1ccc(CCNc2oc(COc3ccc(Br)cc3)nc2C#N)cc1OC	2.5
CCc1cc2c(NC(C(=O)O)C(C)C)ncnc2s1 (stereo unspecified)	-0.31
CCS(=O)(=O)N1CCN(CC2CC3C=CC2C3)CC1 (stereo unspecified)	-0.9
COc1ccc(OC)c(NC(=O)C2CCN(S(=O)(=O)c3cccs3)CC2)c1	1.9

2 of these compounds, reformatted.
CC1=C(C(=O)NCc2ccccc2)C(c2ccccc2OCC(N)=O)NC(=O)N1 (stereo unspecified)
  WNV NS2B-NS3 inh: -0.96

CCc1cc2c(NC(C(=O)O)C(C)C)ncnc2s1 (stereo unspecified)
  WNV NS2B-NS3 inh: -0.31

Continuation:
SMILES	WNV NS2B-NS3 inh
COc1ccc(-c2nc(C3CCCCC3)no2)cc1OC	2.3
COc1ccc(S(=O)(=O)N2CCC(C(=O)Nc3ccccc3C)CC2)c2cccnc12	-0.41
C=CCn1c(SCC(=O)N2CCOCC2)nc2sc3c(c2c1=O)CCCC3	0.72
N#Cc1cccc(NC(=O)c2ccccc2C(=O)O)c1	-1.3
O=c1c2c3c(sc2nc2n1CCCC2)CCC3	-1.1
COc1cc(C(c2sc3nc(C)nn3c2O)N2CC(C)OC(C)C2)cc(OC)c1OC (stereo unspecified)	-0.74
